Compound activity as filed in PubChem BioAssay.
ClpP mod = qHTS Assay for Activators of ClpP; purified B. subtilis ClpP, FRET peptide cleavage, 20 min; Potency, µM (doses to about 57.5 µM), inactives show top-dose activity change, negative = active; hit rate 1.9% among 340,000; active = well fitted falling curve with a large enough effect; inconclusive = small, poorly fitted or top-dose-only effect; inactive = no such curve, though single readings can be large or run the other way; also: potency is read from the fitted curve at half-maximal effect; the source files actives as falling curves though it sought activators and does not explain the sign; nearly all actives have a fitted effect of over 65% in size; many hits overshoot -100%
Target sequence (P80244 whole entry, looked up): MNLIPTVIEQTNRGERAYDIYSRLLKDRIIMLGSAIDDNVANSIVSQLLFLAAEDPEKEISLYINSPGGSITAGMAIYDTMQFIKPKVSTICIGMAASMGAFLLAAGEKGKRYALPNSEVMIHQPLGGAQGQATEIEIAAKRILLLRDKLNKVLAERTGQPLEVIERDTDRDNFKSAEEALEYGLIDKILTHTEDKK
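Buffer: 100 mM Tris/HCl pH8, 100 mM KCl, 0.05% low protease BSA, 2.5% glycerol, 0.01% Tween-20. ClpP 10 microg/mL final; 20 min RT; delta FRET normalized to ADEP and DMSO controls.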
gsp agonist = qHTS for Agonist of gsp, the Etiologic Mutation Responsible for Fibrous Dysplasia/McCune-Albright Syndrome: qHTS; hit rate 0.13% among 340,000; gsp mutant cells, cAMP HTRF, 30 min; control for the full effect not named in the record; Potency, µM (doses to about 76.9 µM), inactives show at the highest dose activation (cAMP increase), actives largely listed as activators; active = well fitted activation curve with a large enough effect; inconclusive = small, poorly fitted or top-dose-only effect, or another doubt; inactive = no such curve, though single readings can be large or run the other way; cell line not stated here;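 also: phosphodiesterase inhibitor Ro 20-1724 added with compounds to block cAMP breakdown; potency is read from the fitted curve at half-maximal effect; nearly all actives have a fitted effect of over 60% in size; about a fifth of the inactives were tested at one dose only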
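Cells stably selected in G418 were plated at 2000/well, grown 16-24 hr, then given compounds in DMSO with the PDE inhibitor […] (300 uM solution added) for 30 min at 37C; cAMP was read by HTRF.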
Sfp inh = qHTS Assay for Inhibitors of Bacillus subtilis Sfp phosphopantetheinyl transferase (PPTase); 4'-phosphopantetheinyl transferase ffp (Bacillus subtilis), Q9F4F7; Biochemical Sfp PPTase activity, qHTS; Potency, µM, without a hit: max response, negative = inhibition, usual class: inhibitors; hit rate 3.5% among 310,000; active = well fitted inhibition curve with a large enough effect; inconclusive = small, poorly fitted or top-dose-only effect, or another doubt; inactive = no such curve, though single readings can be large or run the other way;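 also: the enzyme is Sfp with the accession as filed and its product quenches rhodamine fluorescence; potency is read from the fitted curve at half-maximal effect; 0% = enzyme reaction without inhibitor and -100% = no enzyme wells; top concentration of the series not given in the record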
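Fluorescence-quenching assay with 15 nM Sfp, 5 uM rhodamine-CoA and 12.5 uM BHQ-2-labelled ybbR peptide in pH 7.6 Hepes/MgCl2 buffer. Enzyme was pre-incubated with compound for 15 min at room temperature. Rate was taken from the 30-min fluorescence change (525/598 nm).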
TRPV1 PAM = HTS Assay for Compounds that Act as Potentiators of the Vanilloid Receptor 1 | TRPV1-expressing cells, Fluo-8 calcium influx, capsaicin EC20 potentiation; host cell line not named in the record; control for the full effect not named in the record | potentiation, % at 8.33 µM | hit rate 0.02% among 320,000 | AID 540277, 2011; active means potentiation above 80%; inconclusive means 30% to 80%; inactive means below 30%; also: 0% is about no effect
Target sequence (Q8NER1 whole entry, looked up): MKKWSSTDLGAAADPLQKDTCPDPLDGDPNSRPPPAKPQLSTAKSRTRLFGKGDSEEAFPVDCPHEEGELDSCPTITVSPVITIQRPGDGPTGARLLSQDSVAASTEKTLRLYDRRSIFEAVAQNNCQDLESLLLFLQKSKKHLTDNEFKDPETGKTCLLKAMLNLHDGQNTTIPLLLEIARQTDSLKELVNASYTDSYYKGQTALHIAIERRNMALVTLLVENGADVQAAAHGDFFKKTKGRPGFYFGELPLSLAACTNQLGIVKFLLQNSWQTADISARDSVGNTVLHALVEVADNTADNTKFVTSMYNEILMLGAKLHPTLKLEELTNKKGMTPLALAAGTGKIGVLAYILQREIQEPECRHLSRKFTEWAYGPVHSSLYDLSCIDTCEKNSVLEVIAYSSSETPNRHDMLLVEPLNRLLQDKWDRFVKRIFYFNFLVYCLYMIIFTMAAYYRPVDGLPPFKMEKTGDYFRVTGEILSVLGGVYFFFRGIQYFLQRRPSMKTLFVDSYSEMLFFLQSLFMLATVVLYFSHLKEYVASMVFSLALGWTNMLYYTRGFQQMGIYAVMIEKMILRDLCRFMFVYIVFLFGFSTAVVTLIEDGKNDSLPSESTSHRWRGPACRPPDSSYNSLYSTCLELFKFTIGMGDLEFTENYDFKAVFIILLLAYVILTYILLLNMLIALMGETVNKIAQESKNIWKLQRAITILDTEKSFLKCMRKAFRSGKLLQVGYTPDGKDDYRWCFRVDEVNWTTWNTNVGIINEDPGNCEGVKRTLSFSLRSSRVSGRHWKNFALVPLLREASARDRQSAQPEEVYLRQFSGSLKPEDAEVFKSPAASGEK
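Fluo-8 calcium influx in TRPV1-expressing cells, kinetic read (ex 480/em 520 nm). Compound added and read 3 min for agonist activity, followed by capsaicin at EC20 final and 2 min further read for enhancement.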
TRPML1 inh = qHTS for Inhibitors of the Human Mucolipin Transient Receptor Potential 1 (TRPML1); hit rate 0.02% among 390,000; AID 624415, 2012; TRPML1-inducible cells, Ca2+ dye fluorescence, FDSS; active compounds read low; inhibition of EC80 agonist-evoked calcium signal; activity change, negative = inhibition, % (test concentration not listed); in the data active means activity change below about -50%; inconclusive means about -30% to -50%; inactive means above about -30%;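 also: stimulus is agonist 54-4 at its EC80 concentration; % is scaled to controls: 0 for no effect and ±100 for the full control effect; compound concentration not given in the record; the text of the record puts the active cut at -80%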
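Calcium fluorescence in TRPML1-DL cells induced overnight with Tet: a 110 s read after compound pin addition, then a 110 s antagonist read after challenge with 54-4 at 4 uM final (EC80).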
Menin MLL FP FL = qHTS Assay for Inhibitors Targeting the Menin-MLL Interaction in MLL Related Leukemias: Competition With Fluorescein Labeled MLL-derived Peptide. Fluorescence polarization, fluorescein-MLL peptide displacement from menin. FP activity change, % at 61.4 µM. 290,000 tested, under 10 active; inconclusive = falling polarisation curve, or a change in total fluorescence; inactive = total fluorescence flat and polarisation flat or rising; no compound was filed as active; the % refers to the polarisation; negative = inhibition;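 also: % of control where 0% means no effect; inhibitors lower the polarisation; unlabelled MLL peptide was the positive control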
gsp antag = qHTS for Antagonists of gsp, the Etiologic Mutation Responsible for Fibrous Dysplasia/McCune-Albright Syndrome: qHTS. gsp-mutant cells, cAMP HTRF, 30 min; control for the full effect not named in the record. hit rate 0.4% among 340,000. Potency, µM (highest dose often 76.9 µM), inactives show top-dose activity change, negative = inhibition, most hits filed as inhibitors; active = falling curve of any shape with a large fitted effect; inconclusive = falling curve, mostly with a smaller effect; inactive = flat or rising curve; cell line not stated here;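 also: intracellular cAMP measured with PDE inhibitor Ro 20-1724 present during compound exposure; potency is read from the fitted curve at half-maximal effect; % is scaled to controls: 0 for no effect and ±100 for the full control effect; nearly all actives have a fitted effect of over 65% in size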
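Cells, 2000/well, grown 16–24 h in DMEM 10% FBS with 0.5 mg/ml G418, then compounds plus […] (300 uM addition stock), 30 min at 37C. cAMP read by HTRF (cAMP-d2 and anti-cAMP antibody-K in lysis buffer) after 30 min RT.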
An asterisk follows results filed as active; i = inactive; ? = inconclusive; · = not tested or not shown; & = joins results of further samples; [ ] = another dose, or the depositor's remark.

cpd	Molecule	ClpP mod	gsp agonist	Sfp inh	TRPV1 PAM
1	Cc1[nH]c(C)c(S(=O)(=O)NCc2ccc(F)cc2)c1C(=O)N1CCCCC1	-3.8%	?	19%	18
2	Cc1nn(-c2ccc(C(=O)O)cc2)c(C)c1Cl	·	-11%[15.4 µM]	15%	-11
3	O=C(CCC1CCCC1)Nc1nnc(-c2ccc3c(c2)OCO3)s1	-9.2%	-1%	6%	21
4	CC(C)CC(CO)N1CCN(C(=O)c2cccc(Cl)c2)CCC1=O (stereo not given)	-0.7%	·	·	·
5	COc1cccc(NC(=O)N(Cc2ccco2)C(C)c2cccs2)c1 (stereo not given)	0.1%	-29%	10%	-4
6	c1cnc(N2CCN(c3nc4ccccc4n4cnnc34)CC2)nc1	-21%	?	-7%	-7
7	O=C(CCn1[nH]c(=O)c2ccccc2c1=O)OC1CCCCC1	-0.4%	-9%	2%	26
8	CC[C@]1(C(=O)OC)[C@H]2C(=O)N(C)C(=O)[C@H]2[C@H]2CN=C(SCc3ccc(Cl)cc3)N21	0.4%	·	·	·
9	CCNc1nc(N)nc(Oc2ccc(C(=O)OC)cc2)n1	1.6%	-3%	13%	2
10	CS(=O)(=O)N(CC(=O)NCc1ccco1)Cc1ccc(Cl)cc1	-3.2%	-4%	28µM*	12
11	O=C1C=C(N2CCOCC2)c2ccccc2C1=O	·	-22%	8%	-5
12	Cc1cc(C)n(CC(C)NCc2cn[nH]c2-c2ccc(C)c(C)c2)n1 (stereo not given)	·	-4%[15.4 µM]	8%	6
13	CC(CNC(=O)CN1C(=O)CCSc2ccccc21)c1ccccc1 (stereo not given)	·	-7%	0%	-14
14	Cc1cc(=O)[nH]c(SCC(=O)c2ccccc2)c1C#N	-1.4%	13%	20µM*	5
15	O=c1c2ccccc2ncn1Cc1nc2ccccc2s1	-1.5%	35%	13%	-4

cpd	TRPML1 inh	Menin MLL FP FL	gsp antag
1	-16	·	6%
2	-4	0.6	-1%
3	2	2.7	19%
4	44	·	6%
5	36	-1.9	-23%
6	-8	2.9	17%
7	-24	2.4	-9%
8	-17	·	-1%
9	5	-0.7	-10%
10	4	5.8	-3%
11	4	1.9	?
12	-15	-8.2	18%
13	7	-2.5	3%
14	-4	9.1	-15%
15	5	3.3	17%

The last 4 entries of the section above lead into the next:
cpd	Molecule	ClpP mod	gsp agonist	Sfp inh	TRPV1 PAM
12	Cc1cc(C)n(CC(C)NCc2cn[nH]c2-c2ccc(C)c(C)c2)n1 (stereo not given)	·	-4%[15.4 µM]	8%	6
13	CC(CNC(=O)CN1C(=O)CCSc2ccccc21)c1ccccc1 (stereo not given)	·	-7%	0%	-14
14	Cc1cc(=O)[nH]c(SCC(=O)c2ccccc2)c1C#N	-1.4%	13%	20µM*	5
15	O=c1c2ccccc2ncn1Cc1nc2ccccc2s1	-1.5%	35%	13%	-4
16	Cc1cc(C)c2cc(C(c3nnnn3C3CCCC3)N3CCOCC3)c(=O)[nH]c2c1 (stereo not given)	-8.7%	-35%[inhibitor]	56µM*	11
17	CCOC(=O)CC1C(=O)NCCN1c1nc2ccc(C)cn2c(=O)c1/C=C1\SC(=S)N(C(C)CC)C1=O (stereo not given)	·	·	?	-5
18	O=C(CSc1nc2[nH]ncc2c(=O)n1-c1ccc(Cl)c(Cl)c1)NCc1ccccc1Cl	·	8%[15.4 µM]	13%	13
19	COc1cc(C(=S)N(C)C)ccc1O	0.4%	-1%	40µM*	16
20	COCCn1cc(C(=O)N2CCCC(C)C2)c2c3ccccc3n(C)c2c1=O (stereo not given)	3.2µM*	0%	10%	8
21	Nc1ccc2c(c1)[nH]c(=O)c1ccccc12	20µM*	?	·	·
22	O=C(NCCO)c1c(O)c2cccc3c2n(c1=O)CC3	-23%	?	-7%	3
23	CC(OC(=O)C1CCCC1)C(=O)Nc1ccc(S(N)(=O)=O)cc1 (stereo not given)	1.2%	-21%	·	-2
24	COc1cc(NC(=S)NN2CCN(C)CC2)cc(OC)c1	1.4%	0%	4%	7
25	COc1ccc(NS(=O)(=O)c2ccc3ccccc3c2)c2ncccc12	-9.8%	29%	12%	9
26	CN(Cc1ccccc1)C(=O)CN(c1ccccc1Cl)S(C)(=O)=O	-4.0%	11%	11%	1
27	Cc1ccc2oc(=O)c3cc(C(=O)NCCCN4C(C)CCCC4C)sc3c2c1 (stereo not given)	3.6%	?	13%	9
28	N#Cc1ccc2c(c1)C[C@]1(CCCCN3C(=O)c4ccccc4C3=O)OC3=C(C(=O)OC4(CCCCC4)C3)C2O1	·	·	3%	i
29	COC(=O)c1ccc(C23CC4(C2)[C@H](CN(CC2CCCCC2)[C@@H]4c2ccccc2)C3c2ccc(Cl)nc2)cc1 (stereo not given in full)	-1.4%	6%	1%&-13%	?
30	O=C(O)c1cc([N+](=O)[O-])ccc1C(=O)Nc1cccc([N+](=O)[O-])c1	-0.6%	23%[15.4 µM]	24%	3

cpd	TRPML1 inh	Menin MLL FP FL	gsp antag
12	-15	-8.2	18%
13	7	-2.5	3%
14	-4	9.1	-15%
15	5	3.3	17%
16	-7	-0.2	13%
17	·	?	·
18	12	2.1	·
19	-12	-3.0	-1%
20	4	1.9	-1%
21	78	·	0%
22	-6	-5.8	1%
23	8	·	24%
24	-8	3.2	29%
25	-4	-4.6	-6%
26	·	-4.8	1%
27	-8	·	17%
28	·	6.5[11.7 µM]	·
29	-5	1.0&28	-14%
30	13	0.3	-3%

Continued:
cpd	Molecule	ClpP mod	gsp agonist	Sfp inh	TRPV1 PAM
31	O=C(Cn1nc(Cc2cccnc2)c2ccccc2c1=O)NCCCN1CCCC1=O	-2.1%	23%	18%	·
32	COCCCn1c(SCC(=O)N2CCCC(C)C2)nnc1-c1ccco1 (stereo not given)	-0.4%	?	10%	8
33	O=C(c1ccc2c(c1)OCO2)N1CCc2ccccc2C1	0.2%	15%	6%	-13
34	CCCCCCCOc1ccc(OC(=O)c2ccncc2)cc1	0.3%	-4%	19%	-3
35	CC(C)(O)C#CC#CCN1CCOCC1	-2.5%	1%	1%	-2
36	COc1cc(OC)cc(C(=O)Nn2cc(C(=O)Nc3ccccc3F)c3ccccc3c2=O)c1	-3.9%	-1%[15.4 µM]	6%	5
37	CCOC(=O)c1sc(NC(=O)C2CCCCC2)nc1C	-0.9%	0%	·	·
38	CCN(CC)C(=O)Cn1cc(S(=O)(=O)CC(=O)NCc2ccc3c(c2)OCO3)c2ccccc21	3.3%	-25%	15%	24
39	O=C(Nc1ccc(C(F)(F)F)cc1)c1cccc(-n2cnnn2)c1	-17%	-10%	·	-4
40	O=C(NCc1ccccc1)C1CCC(=O)N(CCN2CCOCC2)C1 (stereo not given)	0.1%	-49%[inhibitor]	28%	-3
41	Cc1ccc(CNC(=O)Cc2cn(C)c3ccccc23)cc1	-2.7%	15%[15.4 µM]	-6%	-10
42	Cc1nc(N2CCN(Cc3ccccc3)CC2)nc2c1CCC2	·	29%	15%	-5
43	Cc1nc(Nc2ccc(Cl)cc2)c2nnn(Cc3ccccc3)c2n1	·	6%[15.4 µM]	21%	-7
44	O=C(Nc1ccccc1C(=O)N1CCCCC1)c1ccco1	·	-13%	4%	-3
45	CCOc1ccc(-c2n[nH]c(C(=O)NN)c2C)cc1	-5.6%	-2%	5%	-12

cpd	TRPML1 inh	Menin MLL FP FL	gsp antag
31	0	2.4	8%
32	6	-1.4	-8%
33	8	5.0	3%
34	-5	0.2	2%
35	-13	2.4	6%
36	-4	4.2	-8%
37	18	·	-18%
38	49	-7.4	2%
39	28	·	-3%
40	7	3.4	28%
41	4	0.0	-1%
42	-8	-0.8	1%
43	0	2.5	10%
44	-17	-4.3	6%
45	17	6.2	-2%

The list continues:
cpd	Molecule	ClpP mod	gsp agonist	Sfp inh	TRPV1 PAM
46	COc1ccc2[nH]c(C(=O)N3CCC(Cc4ccccc4)CC3)cc2c1	-2.2%	20%[15.4 µM]	-8%	-4
47	O=C(COC(=O)/C=C/c1cccc(Br)c1)NCc1cccs1	0.5%	-7%	·	·
48	Cn1c(/C(C#N)=C(\O)c2ccc([N+](=O)[O-])s2)nc2ccccc21	·	10%[15.4 µM]	12%	29
49	O=C1CSC(c2cccc([N+](=O)[O-])c2)N1C1CC2CCC1C2 (stereo not given)	0.2%	11%[15.4 µM]	9%	-1
50	COc1ccc(S(=O)(=O)NCCOc2cccc3cccnc23)cc1OC	·	-6%	19%	9
51	O=C(CN1C(=O)NC2(CCCCCCC2)C1=O)Nc1ccc(Cl)cc1	-0.6%	3%	·	-6
52	O=C(O)c1ccc(Cn2cc(Cl)cn2)cc1	-1.9%	7%	22%	-5
53	O=C(c1cc([N+](=O)[O-])ccc1N1CCCCC1)N1CCCC1	-2.9%	-32%[inhibitor]	8%	-5
54	CC(C)Oc1cccc(C(=O)C2CCCN(C(=O)c3cc(C4CC4)[nH]n3)C2)c1 (stereo not given)	-1.6%	?	10%	-12

cpd	TRPML1 inh	Menin MLL FP FL	gsp antag
46	1	-6.7	-19%
47	-4	·	3%
48	-7	2.4	8%
49	8	5.9	11%
50	-26	-0.9	15%
51	-2	·	7%
52	47	7.4	-13%
53	-24	?	4%
54	-8	6.7	-18%
